Rce1 inhib: blocks yeast Ras-converting enzyme. 290,000 tested, 0.27% active. Q03530. yeast membranes, quenched prenylated peptide cleavage fluorescence. AID 2563. calls only;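 active = fall in fluorescence gain of 50% or more versus controls, with final raw signal at or below 3038400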;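 note: plate controls were neutral control wells for no effect and wells lacking membranes for full effect; tested at 10 µM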
Target sequence (Q03530 whole entry, looked up): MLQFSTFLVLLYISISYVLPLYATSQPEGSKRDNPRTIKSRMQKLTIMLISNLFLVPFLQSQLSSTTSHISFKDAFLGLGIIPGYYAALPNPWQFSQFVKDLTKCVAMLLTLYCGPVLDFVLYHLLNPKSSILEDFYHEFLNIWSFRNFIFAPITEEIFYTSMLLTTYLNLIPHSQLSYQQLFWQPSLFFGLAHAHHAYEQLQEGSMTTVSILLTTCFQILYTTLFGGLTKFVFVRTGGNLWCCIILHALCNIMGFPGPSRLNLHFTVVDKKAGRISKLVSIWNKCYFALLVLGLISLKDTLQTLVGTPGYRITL
CSC inhib: blocks cancer stem cells. inhibition, % at 7.5 µM. 300,000 tested, 1.1% active. cancer stem cell-like cells viability, luminescence;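 active = mean at 75% or more and at least half the replicates too; tested in HMLE shEcad cells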;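 note: 0% = median of negative and 100% = median of positive control wells; the first replicate is given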
MT1-MMP act inh: MT1-MMP (human) activation inhibition; P50281; HT1080 RFP-PRO-GFP cells, GFP/RFP ratio fluorescence, overnight; percent of plate control window, DMSO zero; GFP/RFP ratio change, % at 20 µM; 360,000 tested, 0.061% active; AID 651647;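 active = GFP/RFP ratio change of at least 30% with cell ATP level not reduced by more than half and red fluorescence within 50% of control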; note: strong numbers were not always called active
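Material – HT1080 RFP-PRO-GFP cells · Control set – DMSO wells and RFP-L50D-GFP cells · Incubation – overnight cell settling, then overnight compound exposure, 37 °C, 5% CO2 · Compound dosing – single-point 20 µM compound, 1% DMSO · Read-out – GFP/RFP fluorescence ratio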
PABP FP inh: blocks human PABP binding to poly(A) RNA | fluorescence polarization | inhibition, % at 35 µM | 290,000 tested, 1% active | AID 2014;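 active = 50% or more with normal probe brightness, or confirmed in later tests; about a fifth of its hits are not listed in these tables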;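 note: calls also rest on retests at 20 µM and on dose response follow-up; controls were probe without protein and protein plus probe with vehicle; some compounds called inactive have numbers as strong as hits; many hits fall short of the cut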
Target sequence (P11940 whole entry, looked up): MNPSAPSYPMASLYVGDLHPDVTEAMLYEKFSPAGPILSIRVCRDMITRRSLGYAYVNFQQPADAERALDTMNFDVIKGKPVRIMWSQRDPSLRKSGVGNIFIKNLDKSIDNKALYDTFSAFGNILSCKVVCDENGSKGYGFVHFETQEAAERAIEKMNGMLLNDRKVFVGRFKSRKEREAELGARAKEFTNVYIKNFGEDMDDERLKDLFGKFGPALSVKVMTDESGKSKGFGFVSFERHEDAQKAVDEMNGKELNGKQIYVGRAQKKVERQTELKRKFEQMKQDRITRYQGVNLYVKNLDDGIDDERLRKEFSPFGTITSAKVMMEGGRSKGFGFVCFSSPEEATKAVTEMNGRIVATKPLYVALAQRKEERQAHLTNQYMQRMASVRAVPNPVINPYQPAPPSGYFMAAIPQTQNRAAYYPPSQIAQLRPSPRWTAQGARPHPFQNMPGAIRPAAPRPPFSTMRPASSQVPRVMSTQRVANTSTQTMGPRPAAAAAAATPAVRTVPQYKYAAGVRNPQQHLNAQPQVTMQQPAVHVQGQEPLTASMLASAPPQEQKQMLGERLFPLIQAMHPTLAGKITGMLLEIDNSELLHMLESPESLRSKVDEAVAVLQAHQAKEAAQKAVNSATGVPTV
eIF4H inh: inhibitors of RNA binding by human eIF4H; Q15056; eIF4H fluorescence polarization binding assay; 290,000 tested, 0.94% active; inhibition, % at 35 µM; AID 2012;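 active = 50% or more with normal probe brightness, or confirmed in later tests; about a fifth of its hits are not listed in these tables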;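 note: calls also rest on retests at 20 µM and on dose response follow-up; 0% = protein and probe with vehicle and 100% = probe without protein; strong numbers were not always called active; many hits fall short of the cut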
Env fusion inh: blocks HIV Env-driven cell-cell fusion; 360,000 tested, 1.1% active; inhibition, % at 12.3 µM; HeLa-JRFL Env/CEM21 cell fusion, luciferase;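 active = mean replicate inhibition score of at least 50 and every replicate individually at or above 50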;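 note: 0% = plate neutral controls and 100% = maraviroc near 300 nM; one replicate is shown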
UUG fidelity: modulators of start codon recognition fidelity in yeast | 350,000 tested, 0.13% active | AID 602363 | S. cerevisiae UUG-firefly luciferase reporter, luminescence/redox ratio | activity score, % at 18.7 µM;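 active = replicate mean at a twofold rise or more, about +100% in these data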;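 note: firefly luciferase made from a UUG start codon reports start codon fidelity; reporter light over untreated wells divided by growth signal over untreated wells; some hits fall short of that in this replicate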
eIF4H inh retest: also measured in eIF4H inh; calls as there; inhibition, %; compound at 20 µM; confirmation average;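 mean of two retest wells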
PABP FP inh retest: recorded beside PABP FP inh, whose call it bears; inhibition, %; compound at 20 µM; confirmation repeats;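 mean of two retest wells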
MT1-MMP act inh RFP: recorded beside MT1-MMP act inh, whose call it bears; RFP signal change, %; measured here: RFP expression control read;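 0 = vehicle wells; hits needed this value within 50% of zero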
Numbers without * were called inactive; i = inactive; x = not tested or not shown. An unsorted share of the library (roughly 3% active in at least one column).

SMILES | Rce1 inhib | CSC inhib | MT1-MMP act inh | MT1-MMP act inh RFP | PABP FP inh | eIF4H inh | Env fusion inh | UUG fidelity | others
C=CC[C@@H](CC(=O)N(CCO)Cc1ccccc1)C(=O)N[C@@H](C)COC(=O)[C@@H](CC=C)CC(=O)OC(C)(C)C | x | -3 | -5 | -3 | x | x | -25 | 10
Cc1cc(Cl)ccc1OC(C)c1nnc(N)s1 (configuration not stated) | x | -8 | -1 | 0 | 0 | -4 | -15 | -11
CC(C)C(NC(=O)c1ccc(Cl)cc1Cl)C(=O)NCCc1ccccn1 (configuration not stated) | x | x | 2 | 0 | x | x | 0 | -18
O=C(OCc1cn([C@H]2CN(C(=O)c3cccs3)[C@@H](c3ccc(Cl)cc3)C[C@@H]2O)nn1)c1ccccc1 | x | x | 4 | 1 | x | x | -3 | -17
CC[C@]12c3[nH]c4cc(-c5ccco5)ccc4c3CCN1C(=O)[C@@H](CC(=O)NCCCn1ccnc1)C[C@@H]2C(=O)N1CCN(C(=O)C2CC2)CC1 | x | x | 2 | 6 | x | x | -13 | -10
COc1ccc(C2CC(c3ccccc3F)=NN2c2ccc(S(N)(=O)=O)cc2)cc1 (configuration not stated) | x | x | 1 | 6 | x | x | -8 | 6
O=C(NNC(=O)c1ccccc1C(=O)O)c1cc2ccccc2o1 | i | -7 | -2 | 1 | -6 | -2 | 2 | -10
CS(=O)(=O)Nc1ccc(C(=O)NCCSCc2ccccc2)cc1 | i | 2 | 0 | 4 | 2 | -6 | -3 | x
Brc1ccc(CN2CCN(c3ccccn3)CC2)s1 | i | -7 | 6 | -3 | 1 | -6 | x | -5
CCN1C(=O)[C@H]2[C@@H](c3ccc(C)cc3)N3C(=O)N(c4ccccc4)C(=O)[C@@]3(CC)[C@H]2C1=O | i | -6 | 3 | 4 | 13 | -2 | 6 | -9
Cc1cc(Cl)ccc1C(=O)C1CCCN(C(=O)c2snnc2C)C1 (configuration not stated) | i | -8 | 1 | -2 | -10 | 4 | 2 | x
O=C(NCc1ccccc1)NC12CC3CC(CC(C3)C1)C2 | i | 33 | -5 | 1 | 9 | -12 | 10 | x
O=C(c1cccc2ccccc12)N1CCN(Cc2ccccc2F)CC1 | i | 12 | -5 | -3 | 2 | 0 | 13 | -5
O=C(O)CC/C(=N\NC(=O)c1ccccc1Br)c1ccccc1 | i | -19 | 2 | 1 | 8 | 5 | 6 | x
CCCNC(=O)c1onc(CSc2ccc(F)cc2)c1C(=O)NCC1CC1 | i | -19 | -1 | 1 | x | x | 25 | -3

Arranged by SMILES length (largest number first): part of the list above.
SMILES | Rce1 inhib | CSC inhib | MT1-MMP act inh | MT1-MMP act inh RFP | PABP FP inh | eIF4H inh | Env fusion inh | UUG fidelity | others
CC[C@]12c3[nH]c4cc(-c5ccco5)ccc4c3CCN1C(=O)[C@@H](CC(=O)NCCCn1ccnc1)C[C@@H]2C(=O)N1CCN(C(=O)C2CC2)CC1 | x | x | 2 | 6 | x | x | -13 | -10
C=CC[C@@H](CC(=O)N(CCO)Cc1ccccc1)C(=O)N[C@@H](C)COC(=O)[C@@H](CC=C)CC(=O)OC(C)(C)C | x | -3 | -5 | -3 | x | x | -25 | 10
CCN1C(=O)[C@H]2[C@@H](c3ccc(C)cc3)N3C(=O)N(c4ccccc4)C(=O)[C@@]3(CC)[C@H]2C1=O | i | -6 | 3 | 4 | 13 | -2 | 6 | -9
O=C(OCc1cn([C@H]2CN(C(=O)c3cccs3)[C@@H](c3ccc(Cl)cc3)C[C@@H]2O)nn1)c1ccccc1 | x | x | 4 | 1 | x | x | -3 | -17
COc1ccc(C2CC(c3ccccc3F)=NN2c2ccc(S(N)(=O)=O)cc2)cc1 (configuration not stated) | x | x | 1 | 6 | x | x | -8 | 6
CC(C)C(NC(=O)c1ccc(Cl)cc1Cl)C(=O)NCCc1ccccn1 (configuration not stated) | x | x | 2 | 0 | x | x | 0 | -18
CCCNC(=O)c1onc(CSc2ccc(F)cc2)c1C(=O)NCC1CC1 | i | -19 | -1 | 1 | x | x | 25 | -3
Cc1cc(Cl)ccc1C(=O)C1CCCN(C(=O)c2snnc2C)C1 (configuration not stated) | i | -8 | 1 | -2 | -10 | 4 | 2 | x
CS(=O)(=O)Nc1ccc(C(=O)NCCSCc2ccccc2)cc1 | i | 2 | 0 | 4 | 2 | -6 | -3 | x
O=C(NCc1ccccc1)NC12CC3CC(CC(C3)C1)C2 | i | 33 | -5 | 1 | 9 | -12 | 10 | x
Brc1ccc(CN2CCN(c3ccccn3)CC2)s1 | i | -7 | 6 | -3 | 1 | -6 | x | -5
Cc1cc(Cl)ccc1OC(C)c1nnc(N)s1 (configuration not stated) | x | -8 | -1 | 0 | 0 | -4 | -15 | -11

Next records.
SMILES | Rce1 inhib | CSC inhib | MT1-MMP act inh | MT1-MMP act inh RFP | PABP FP inh | eIF4H inh | Env fusion inh | UUG fidelity | others
Cc1cc(NC(=O)CN2C(=O)c3ccccc3C2=O)no1 | i | 1 | 0 | 5 | -1 | 1 | -17 | x
CC(NC(=O)COC(=O)c1cc([N+](=O)[O-])ccc1N1CCOCC1)c1ccccc1 (configuration not stated) | x | -3 | -1 | 2 | -8 | 2 | 9 | -7
Cc1ccc(OC(C)C(=O)Nc2ccc3c(c2)n(C)c(=O)n3C)c(C)c1 (configuration not stated) | i | -13 | 5 | 1 | x | x | -1 | -6
CN(CC(=O)Nc1ccc(F)cc1)C(=O)c1ccc(N2C(=O)CCC2=O)cc1 | x | x | -7 | -2 | x | x | -31 | -6
COc1ccc(NC(=O)CCS(=O)(=O)c2cccc3nonc23)c(OC)c1 | i | x | -2 | 5 | 10 | 4 | -35 | 11
COCCCN1CCc2[nH]c(=S)[nH]c(=O)c2C1 | i | -11 | -2 | 2 | -6 | -13 | -38 | x
CC(C)Nc1nc2c(c(=O)n(C)c(=O)n2C)n1C | i | 4 | x | x | -12 | -13 | 17 | -15
O=C(Cn1nnc(-c2cccs2)n1)N1CCc2ccccc2C1 | i | -6 | 0 | 1 | -5 | -5 | -1 | -9
COc1ccc(-n2c(O)c(C=Nc3ccccc3)c3ccccc3c2=O)cc1OC | i | -8 | -1 | -1 | -20 | -11 | 17 | 2
CCC(CC)C(=O)Nc1cccc(-c2nc3ccccc3o2)c1 | i | 12 | 4 | -3 | 4 | -7 | x | -11
CC(=O)N1CCC(N(C(=O)Nc2c(F)cccc2F)C(C)C)CC1 | i | -14 | 6 | 5 | 4 | -7 | -18 | -8
Cc1cccc(C(C)C)c1NS(=O)(=O)c1cn(C)nc1C | i | -13 | 0 | -1 | 22 | -3 | 6 | -15
O=C(OCc1nnc(-c2ccccc2)o1)c1cc(F)c(F)cc1Cl | i | 9 | -1 | 2 | 30 | 6 | -4 | x
COc1ccc(C2=NOC(C(=O)NCc3cccs3)C2)cc1 (configuration not stated) | i | 32 | 8 | -4 | 2 | -2 | -411 | 23
CNC[C@H](O)c1cccc(O)c1 | i | 11 | -3 | -1 | -43 | -5 | 27 | -16
CC(=O)NC12CC3CC(C1)CC(C(=O)N1CCN(c4ncccn4)CC1)(C3)C2 | i | -9 | -2 | -2 | 3 | -2 | -11 | 0
O=C(/C=C/c1ccc(Br)cc1)NC(=S)Nc1ccc(S(=O)(=O)Nc2nccs2)cc1 | i | -5 | -11 | -4 | 2 | -10 | -49 | x
COc1ccc(F)cc1CSc1nnnn1-c1ccc(O)cc1 | i | 22 | -1 | -7 | 10 | -1 | 26 | -10
C=COCCNC(=S)Nc1ccccc1 | i | -4 | -4 | 2 | 5 | -9 | -2 | -29
O=C(OCC(=O)N1CCc2ccccc2C1)c1cccs1 | i | -5 | 1 | 4 | -2 | -9 | 5 | x
Cc1cc(C)c(NC(=O)CN2C(=O)CC(C)S(=O)(=O)c3ccccc32)c(C)c1 (configuration not stated) | i | -12 | 1 | -1 | 5 | 6 | -8 | -3
CN(CC1CCOCC1)C(=O)CC1C(=O)NCCN1Cc1cccc(F)c1 (configuration not stated) | i | 0 | -1 | 6 | 8 | 7 | -8 | -5
CC1Cc2ccccc2N1C(=O)Cn1cnc2c1c(=O)n(C)c(=O)n2C (configuration not stated) | i | 19 | 3 | 1 | -7 | -4 | -2 | 14
COc1ccc(NC(=O)CN2C(=O)C(C)Oc3ccccc32)cc1OC (configuration not stated) | i | -7 | 12 | -4 | 14 | -8 | -12 | 3
CC(C)c1ccc(NC(=O)CCN2C(=O)[C@@H]3Cc4ccccc4CN3C2=O)cc1 | i | 12 | -2 | -1 | 4 | 2 | 7 | -23
COc1ccc(Cc2nnc(NC(=O)c3ccc(OC(C)=O)cc3)s2)cc1OC | i | 10 | -1 | -3 | -2 | -21 | 5 | -22
Cc1noc(C)c1COc1ccccc1C(=O)NNC(=O)c1ccc(F)cc1 | x | -12 | 2 | 2 | x | x | -4 | -11
O=C(CSc1nnc(-c2ccncc2)s1)Nc1ccccc1 | x | -8 | 1 | -1 | 8 | 2 | -3 | -18
COc1cccc(C(=O)C2CCCN(CC3=Cc4cc(OC)ccc4OC3)C2)c1 (configuration not stated) | i | 12 | 1 | -2 | -6 | -5 | 16 | x
Cc1cccc(NC(=O)[C@@H](CC(C)C)NC(=O)[C@@H]2Cc3ccccc3CN2)c1 | i | 13 | 0 | -1 | 4 | 6 | 8 | -24
O=S(=O)(NCCN1CCOCC1)c1cccc(C(F)(F)F)c1 | i | 30 | 1 | 4 | 6 | 0 | -1 | -11
CC(C)c1ccccc1NC(=S)NCc1ccccc1F | i | x | -4 | -5 | -1 | -21 | 2 | x
Cc1ccc(C(=O)N/C(=C\c2ccc3c(c2)OCO3)C(=O)N2CCOCC2)cc1 | i | -7 | 2 | -2 | -2 | -10 | -6 | -18
COc1ccc(Br)cc1CN(C)C(=O)c1cc(Cl)c2c(c1)OCCO2 | i | -3 | 1 | 0 | 5 | 8 | 2 | 0
COc1ccc2cc(C3CC(c4ccco4)=NN3C(=O)CCC(=O)O)c(Cl)nc2c1 (configuration not stated) | i | 5 | -1 | 1 | 13 | 81 | -5 | -9 | eIF4H inh retest=36;PABP FP inh retest=40
CC(C)(C)C(=O)[C@H]1[C@H](c2ccccc2)[C@@]2(N=C(c3ccccc3)OC2=O)C2c3ccccc3C=NN21 (some centres not stated) | i | x | 2 | 1 | -5 | -3 | -132 | -13
CCOc1ccc(NC(=O)CN(C)CC(=O)NC2CCCc3ccccc32)cc1OCC (configuration not stated) | i | -16 | 7 | 3 | 5 | -2 | -24 | 2
COc1ccc(C(=O)Nc2ccccc2NC(=O)c2ccco2)cc1OC | i | 6 | 0 | 6 | -14 | 3 | -8 | -11
O=C(N[C@@H](Cc1c[nH]c2ccccc12)C(=O)NC1CC1)c1ccccc1Cl | i | -1 | 2 | 7 | 24 | 8 | 0 | x
C[C@H](NC(=O)C1CCN(S(=O)(=O)c2ccccc2)CC1)C(=O)NCc1ccc(Cl)c(Cl)c1 | i | 14 | -3 | -4 | 0 | -9 | 22 | -14
Cc1ccc(C)c(N2CCN(C(=O)Cc3ccc(NC4=NC5CS(=O)(=O)CC5S4)cc3)CC2)c1 (configuration not stated) | i | x | 1 | 4 | 4 | 0 | 9 | -39
C=CCN1C(=O)c2ccc(C(=O)N(C)Cc3ccc(C)o3)cc2C1=O | i | -3 | 4 | 1 | x | x | x | 5

Source: PubChem
